eIF4H FP inh: inhibitors of RNA binding by human eIF4H. inhibition, % at 35 µM. actives 0.94% (n = 290,000). eIF4H fluorescence polarization binding assay. Q15056;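 active = 50% or more with normal probe brightness, or confirmed in later tests; inconclusive = above 50% with abnormal brightness, or retests that disagree; inactive = below 50% or failed in later tests; about a fifth of its hits are not listed in these tables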;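 also: calls also rest on retests at 20 µM and on dose response follow-up; 0% = protein and probe with vehicle and 100% = probe without protein; strong numbers were not always called active; many hits fall short of the cut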
HIV Env fusion: inhibitors of HIV Env-mediated cell fusion. HeLa-JRFL Env/CEM21 cell fusion, luciferase. inhibition, % at 12.3 µM. actives 1.1% (n = 360,000). AID 651610;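 active = mean replicate inhibition score of at least 50 and every replicate individually at or above 50; inconclusive = only one of the two criteria met; inactive = mean below 50 and not all replicates reaching 50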;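 also: 0% = plate neutral controls and 100% = maraviroc near 300 nM; one replicate is shown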
MT1-MMP act inh: inhibitors of human MT1-MMP activation | AID 651647 | HT1080 RFP-PRO-GFP cells, GFP/RFP ratio fluorescence, overnight; percent of plate control window, DMSO zero | P50281 | actives 0.061% (n = 360,000) | GFP/RFP ratio change, % at 20 µM;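 active = GFP/RFP ratio change of at least 30% with cell ATP level not reduced by more than half and red fluorescence within 50% of control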; also: strong numbers were not always called active
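Material: RFP-PRO-GFP reporter HT1080 cells. Dosing: single-point 20 µM compound, 1% DMSO. Controls: DMSO and RFP-L50D-GFP cell wells. Timing: cells overnight before dosing, compound overnight, 37 °C, 5% CO2. Measure: GFP/RFP fluorescence ratio.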
Rce1 inhib: yeast Ras-converting enzyme inhibition | calls only | Q03530 | yeast membranes, quenched prenylated peptide cleavage fluorescence | actives 0.27% (n = 290,000);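 active = fall in fluorescence gain of 50% or more versus controls, with final raw signal at or below 3038400; inconclusive = same 50% fall but final raw signal above 3038400; inactive = fall in fluorescence gain under 50%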;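 also: plate controls were neutral control wells for no effect and wells lacking membranes for full effect; tested at 10 µM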
PABP FP inh: PABP-poly(A) binding inhibition; PABP-poly(A) RNA binding, fluorescence polarization; inhibition, % at 35 µM; actives 1% (n = 290,000);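 active = 50% or more with normal probe brightness, or confirmed in later tests; inconclusive = above 50% with abnormal brightness, or retests that disagree; inactive = below 50% or failed in later tests; about a fifth of its hits are not listed in these tables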;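 also: calls also rest on retests at 20 µM and on dose response follow-up; controls were probe without protein and protein plus probe with vehicle; some compounds called inactive have numbers as strong as hits; many hits fall short of the cut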
Target sequence (P11940 whole entry, looked up): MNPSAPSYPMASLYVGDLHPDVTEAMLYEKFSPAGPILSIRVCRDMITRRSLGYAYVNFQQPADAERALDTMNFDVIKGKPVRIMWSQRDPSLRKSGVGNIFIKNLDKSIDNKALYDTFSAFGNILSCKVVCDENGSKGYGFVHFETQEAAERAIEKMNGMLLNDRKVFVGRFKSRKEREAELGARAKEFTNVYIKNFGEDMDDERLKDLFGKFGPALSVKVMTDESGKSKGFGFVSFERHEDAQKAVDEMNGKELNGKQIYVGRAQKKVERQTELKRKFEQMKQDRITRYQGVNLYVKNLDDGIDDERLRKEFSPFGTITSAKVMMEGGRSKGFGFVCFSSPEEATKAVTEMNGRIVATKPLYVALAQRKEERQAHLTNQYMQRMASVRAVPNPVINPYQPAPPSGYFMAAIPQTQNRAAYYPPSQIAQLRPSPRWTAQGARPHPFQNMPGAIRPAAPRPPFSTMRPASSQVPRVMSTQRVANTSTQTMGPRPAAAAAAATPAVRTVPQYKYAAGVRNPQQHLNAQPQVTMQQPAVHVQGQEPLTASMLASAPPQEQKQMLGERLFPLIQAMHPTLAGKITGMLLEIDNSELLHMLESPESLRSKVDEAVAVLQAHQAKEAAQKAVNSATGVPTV
UUG fidelity: modulators of start codon recognition fidelity in yeast | S. cerevisiae UUG-firefly luciferase reporter, luminescence/redox ratio | activity score, % at 18.7 µM | actives 0.13% (n = 350,000) | AID 602363;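 active = replicate mean at a twofold rise or more, about +100% in these data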;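 also: firefly luciferase made from a UUG start codon reports start codon fidelity; reporter light over untreated wells divided by growth signal over untreated wells; some hits fall short of that in this replicate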
CSC inhib: cancer stem cell inhibition; actives 1.1% (n = 300,000); AID 2717; inhibition, % at 7.5 µM; cancer stem cell-like cells viability, luminescence;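 active = mean at 75% or more and at least half the replicates too; inconclusive = mean and replicates disagree; tested in HMLE shEcad cells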;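 also: 0% = median of negative and 100% = median of positive control wells; the first replicate is given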
MT1-MMP act inh RFP: also measured in MT1-MMP act inh; calls as there; RFP signal change, %; measured here: RFP expression control read;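 0 = vehicle wells; hits needed this value within 50% of zero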
* = called active by the depositor; i = inactive; u = inconclusive; x = not tested or not shown.

Values run as follows: eIF4H FP inh	HIV Env fusion	MT1-MMP act inh	MT1-MMP act inh RFP	Rce1 inhib	PABP FP inh	UUG fidelity	CSC inhib
CC(C)(C)NC(=O)Cn1c(=O)c(=O)n(Cc2ccccc2)c2ccc(Cl)cc21
 : 8	x	2	0	i	12	-9	-3
Cc1cc(NC(=O)Cn2cc(C(F)(F)F)cc(Cl)c2=O)no1
 : -9	6	0	-1	i	0	-6	-3
CN(C)CCOC(=O)NC12CC3CC(CC(C3)C1)C2
 : -9	14	-1	2	i	5	x	-6
CC1CN(C(=O)CCC(=O)NCc2ccccc2)c2cc(Cl)ccc2O1 (centres undefined)
 : -16	-2	0	0	i	-10	8	-10
O=C(COc1ccc(S(=O)(=O)N2CCCCC2)cc1)NCc1ccccn1
 : -4	5	-3	-4	i	-6	x	-9
COc1ccc(OC)c(C2=Nn3c(nnc3-c3cc(C)[nH]n3)SC2)c1
 : -1	26	2	4	i	-4	x	2
CC1(c2ccc(Cl)cc2)NC(=O)N(CC(=O)Nc2ccc3c(c2)OCO3)C1=O (centres undefined)
 : x	-53	4	0	x	x	-13	x
CN1CCN(S(=O)(=O)c2ccc(NC(=O)COc3ccccc3Cl)cc2)CC1
 : -7	-6	-1	-2	i	-1	-10	-6
COc1ccc(Cl)cc1NC(=S)Nc1ccccc1C
 : -4	-3	-6	2	i	4	x	-14
CCOc1ccc(N(CC(=O)NCc2ccccc2Cl)S(=O)(=O)c2c(C)[nH]c(=O)[nH]c2=O)cc1
 : -11	2	0	4	i	-6	9	-1
COC(CN(C)C(=O)c1ccc(CS(=O)(=O)c2ccccc2C)o1)OC
 : 9	8	-3	3	i	-3	-4	-13
Cc1ccc(S(=O)(=O)N2C[C@@H]3CCCC[C@@H]3[C@@H](C)[C@H]2c2cn(Cc3ccccc3)c3ccc(F)cc23)cc1
 : x	77*	-9	-25	x	x	-19	x
COc1ccc(-c2nc(-c3ccc(O)cc3O)cs2)cc1OC
 : -3	-106	-1	-4	i	-2	-13	x
CCOC(=O)c1c(C)noc1-c1ccc(Br)o1
 : -10	-6	-2	-2	i	0	-11	-6
COc1ccc(OC(C)C(=O)N2CCc3ccccc3C2)cc1 (centres undefined)
 : 3	12	0	-6	i	4	-8	2
CC(=O)N1CCN(c2cccc(C)c2C)CC1
 : -7	-5	-4	-3	i	-8	-8	-3
COc1ccc(NC(=O)Nc2cccc3c2O[C@H](CN(C)C(=O)Nc2c(C)noc2C)[C@@H](C)CN([C@H](C)CO)C3=O)cc1
 : x	-8	6	5	x	x	-2	x
O=C(NCC1CCCO1)c1cccc(NS(=O)(=O)c2ccc(Br)cc2)c1 (centres undefined)
 : x	-1	1	-9	i	x	-12	-5
CCC(Oc1ccccc1)C(=O)Nc1nc2c(s1)C(=O)CC(C)(C)C2 (centres undefined)
 : -3	-28	6	3	i	-13	-14	5
CSc1cc(-c2ccccc2)n(Cc2ccccc2Cl)c(=O)c1C#N
 : -2	x	-11	-17	i	3	x	38

The closing seven compounds of the part above open the next one.
Values run as follows: eIF4H FP inh	HIV Env fusion	MT1-MMP act inh	MT1-MMP act inh RFP	Rce1 inhib	PABP FP inh	UUG fidelity	CSC inhib
CCOC(=O)c1c(C)noc1-c1ccc(Br)o1
 : -10	-6	-2	-2	i	0	-11	-6
COc1ccc(OC(C)C(=O)N2CCc3ccccc3C2)cc1 (centres undefined)
 : 3	12	0	-6	i	4	-8	2
CC(=O)N1CCN(c2cccc(C)c2C)CC1
 : -7	-5	-4	-3	i	-8	-8	-3
COc1ccc(NC(=O)Nc2cccc3c2O[C@H](CN(C)C(=O)Nc2c(C)noc2C)[C@@H](C)CN([C@H](C)CO)C3=O)cc1
 : x	-8	6	5	x	x	-2	x
O=C(NCC1CCCO1)c1cccc(NS(=O)(=O)c2ccc(Br)cc2)c1 (centres undefined)
 : x	-1	1	-9	i	x	-12	-5
CCC(Oc1ccccc1)C(=O)Nc1nc2c(s1)C(=O)CC(C)(C)C2 (centres undefined)
 : -3	-28	6	3	i	-13	-14	5
CSc1cc(-c2ccccc2)n(Cc2ccccc2Cl)c(=O)c1C#N
 : -2	x	-11	-17	i	3	x	38
Oc1ccc(-c2cccc(-c3ccc(O)cc3)c2)cc1
 : 2	-22	-10	1	i	-10	-5	48
Clc1cccc(-c2csc(Nc3cccnc3)n2)c1
 : -3	-19	-2	-3	i	11	x	-13
CC(=O)c1ccc(NC(=O)c2ccc(NC(=O)c3ccco3)cc2)cc1
 : -20	x	1	2	i	-33	-12	-4
CC(=O)c1cccc(NC(=O)Nc2cccs2)c1
 : 13	x	0	-2	i	14	-8	-4
Cc1oc(-c2ccccc2F)nc1CS(=O)(=O)CC(=O)NCCCc1ccccc1
 : -4	11	5	2	i	-5	-18	4
Cc1c(C(=O)NCc2cccc([N+](=O)[O-])c2)sc(=O)n1Cc1ccccc1F
 : x	3	6	-4	x	x	-19	x
COc1cccc(C2C(C(=O)NCc3ccccc3)=C(C)Nc3ncnn32)c1 (centres undefined)
 : -7	-37	-5	0	i	-6	-11	-1
CCc1nc2ccc(C(=O)Nc3ccc(NC(C)=O)cc3)cn2c1N(C)CCC(C)C
 : x	22	-4	-2	x	x	-2	x
COC(=O)c1cc2n(n1)CCN(Cc1cccc(OC)c1)C2=O
 : -5	8	4	1	i	31	x	-13
COc1ccc(S(=O)(=O)NC2CC(C)(C)NC(C)(C)C2)c(C)c1C
 : -3	-14	x	x	i	-1	x	x
COc1ccccc1N1CCN(CC(O)COc2ccc(S(=O)(=O)N3CCOCC3)cc2)CC1 (centres undefined)
 : -8	x	-2	-8	i	21	-13	1
Cc1cc(C)c(C(=O)CN2C(=O)NC3(CCCCC3)C2=O)cc1C
 : -4	-17	1	-3	i	40	-14	-7
COc1ccc(-c2nc3c(C)cc(Br)cn3c2Cc2ccsc2)cc1OC
 : x	-44	-2	-5	x	x	-21	x
Cc1ccc(C(=O)NN=Cc2ccc3c(c2)OCO3)cc1
 : x	u	7	2	x	x	-10	x
COc1ccccc1-n1c(SCC(=O)O)nc2sc3c(c2c1=O)CCC3
 : 1	-11	-6	-1	i	-2	x	-10
CCCc1nc(NCCCOCC)c2nnn(Cc3ccccc3)c2n1
 : -17	-8	3	-6	i	2	-9	-13
CC(C(=O)N1CCCCC1)N(C)CC(=O)Nc1ccc(Cl)cc1 (centres undefined)
 : -8	24	1	3	i	22	x	x
COc1cc(NS(=O)(=O)c2c(C)[nH]c(C)c2C(=O)N2CCCC2)cc(OC)c1OC
 : -16	-2	-4	2	i	-6	-6	-8
CC(C)c1ccc(/C=C/C(=O)NC(=S)Nc2ccc(CN3CCOCC3)cc2)cc1
 : -2	19	-7	-18	i	6	x	57
Cc1cc(C)c(NC(=O)C2CCCO2)c(C)c1NC(=O)C1CCCO1 (centres undefined)
 : -1	-2	-2	-1	i	-8	-20	-9

Random excerpt: two compounds from above
Values run as follows: eIF4H FP inh	HIV Env fusion	MT1-MMP act inh	MT1-MMP act inh RFP	Rce1 inhib	PABP FP inh	UUG fidelity	CSC inhib
COc1ccc(-c2nc3c(C)cc(Br)cn3c2Cc2ccsc2)cc1OC
 : x	-44	-2	-5	x	x	-21	x
COc1cccc(C2C(C(=O)NCc3ccccc3)=C(C)Nc3ncnn32)c1 (centres undefined)
 : -7	-37	-5	0	i	-6	-11	-1

Remaining list, next part
Values run as follows: eIF4H FP inh	HIV Env fusion	MT1-MMP act inh	MT1-MMP act inh RFP	Rce1 inhib	PABP FP inh	UUG fidelity	CSC inhib
COc1ccc(CCN2C(=O)c3cccc4c(C(=O)N5CCCCC5)ccc(c34)C2=O)cc1OC
 : 4	8	-2	-13	i	5	x	10
COc1ccc(NC(=O)c2cc(C3CCCCN3C(=O)c3ccc(NC(C)=O)cc3)on2)c(C)c1 (centres undefined)
 : x	-17	2	4	x	x	-1	x
CCCC(C)NC(=O)c1ccc(C2SCC(=O)N2Cc2ccco2)cc1 (centres undefined)
 : -7	x	1	0	i	0	-11	-1
CC1CCN(C(=O)/C(=C\c2cccs2)NC(=O)c2ccccc2)CC1
 : -5	10	0	1	i	-12	x	2
Cc1cc(Cl)ccc1OCC(=O)OCC(=O)N1CCC(C(N)=O)CC1
 : x	x	-4	1	x	x	6	-14
N=C1/C(=C/c2cccn2CCOc2ccccc2)C(=O)N=C2SC=C(c3ccccc3)N12
 : 12	19	-36	-32	i	9	-11	69
CCCNC(=S)N1CCCC(c2nc3ccccc3[nH]2)C1 (centres undefined)
 : -2	-38	3	-3	i	-4	x	-9
CCSc1nnc(NC(=O)c2cccc(OCc3c(C)noc3C)c2)s1
 : 1	-192	3	-7	i	10	-15	24
Cc1cc(S(=O)(=O)Nc2cccnc2)c(C)s1
 : 0	-10	-2	-4	i	-8	-1	-11
COC(=O)N/N=C(\C)c1ccc(OC(F)F)cc1
 : -10	-7	3	3	x	-13	x	-5
Cc1nn(C)c(C)c1S(=O)(=O)N1CCCC(C(=O)NC2CCCCCC2)C1 (centres undefined)
 : 2	-20	3	-3	i	-6	2	-6
CC(C)(C)c1[nH]nc2c1C(c1ccccc1OC(=O)N1CCOCC1)C(C#N)=C(N)O2 (centres undefined)
 : 22	x	-1	2	x	26	x	-5
Cc1c(NC(=S)NC(=O)c2ccco2)cccc1-c1nc2ncccc2o1
 : -9	-32	3	2	i	-2	x	-3
CCCCNC(=O)CCCN1C(=O)c2cccnc2Sc2ccccc21
 : 1	12	-1	2	i	7	-8	x
COc1cc(/C=N/NC(=O)c2ccc(C)nc2)cc([N+](=O)[O-])c1O
 : -4	-21	-1	2	i	10	x	9
COC(=O)C1=C(C(=O)OC)C2C(C)=CC(C)=CN2C(C(=O)OC)=C1C(=O)OC (centres undefined)
 : 14	8	-7	3	i	-10	x	4
CCC(C(=O)NC1CCCCC1)n1c(SCc2ccccc2F)nc2ccncc21 (centres undefined)
 : -10	-13	3	-5	i	4	-10	-1
O=C(/C=C/Nc1cccc([N+](=O)[O-])c1)c1ccco1
 : x	-238	-1	-5	i	x	-11	-1
O=C(Cc1ncc(C(F)(F)F)cc1Cl)NCc1ccco1
 : 1	-3	0	3	i	-11	-5	9
COc1ccc(S(=O)(=O)N2CCOCC2)cc1C(=O)Nc1ccc(N2CCCCCC2)cc1
 : x	2	0	-19	x	x	-13	x

An excerpt from above in order of the UUG fidelity value, rising:
| SMILES | UUG fidelity |
| --- | --- |
| COc1ccc(S(=O)(=O)N2CCOCC2)cc1C(=O)Nc1ccc(N2CCCCCC2)cc1 | -13 |
| O=C(Cc1ncc(C(F)(F)F)cc1Cl)NCc1ccco1 | -5 |
| Cc1cc(Cl)ccc1OCC(=O)OCC(=O)N1CCC(C(N)=O)CC1 | 6 |

(list continues)
Values run as follows: eIF4H FP inh	HIV Env fusion	MT1-MMP act inh	MT1-MMP act inh RFP	Rce1 inhib	PABP FP inh	UUG fidelity	CSC inhib
Cc1cc(C)cc(-n2c3nc4ccccc4nc3c3c(=O)n(Cc4ccco4)cnc32)c1
 : 44	x	0	4	i	5	-9	15
Cc1ccc(NC(=O)NC(=O)N(C2CCCCC2)S(=O)(=O)c2ccccc2)cc1
 : -6	13	-2	2	i	-3	6	-6
CCn1cc(/C=N/NC(=O)c2ccc3c(c2)OCO3)c(C)n1
 : 2	8	13	4	i	-2	-6	-2
O=C(COc1ccc2ccc(=O)oc2c1)NCC(O)c1ccccc1 (centres undefined)
 : -9	-2	-2	1	i	-4	-13	-6
